LANA-H2A inh: blocks KSHV LANA binding to histone H2A/H2B | hit rate 0.6% among 320,000 | cell-free LANA-H2A/H2B peptide, fluorescence polarization | inhibition, % (no concentration beside the values) | AID 2629 | Q9QR71; in the data active = inhibition mostly above about 10%, no sharp cut-off; inactive = mostly below about 6.7%;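 also: stock transfer was 7.5 nL into about 10 µL; 0% = median of vehicle wells and 100% = median of positive control wells; one replicate is shown; the record names a cut of 25% in any replicate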
Beta2AR agonist: activates human beta-2 adrenergic receptor causing internalization; response, % (concentration not given with the values); P07550; hit rate 0.43% among 340,000; Am2.2-beta2AR cells, FAP receptor internalization, flow cytometry; reference of the scale not given here;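 active = response above a set limit, near 3 SD of response in nonfluorescent compounds, cut at about 42% in these data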;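 also: stock transfer was 100 nL into about 11 µL; a reference agonist was the positive control; negative values mostly stem from fluorescent compounds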
Target sequence (P07550 whole entry, looked up): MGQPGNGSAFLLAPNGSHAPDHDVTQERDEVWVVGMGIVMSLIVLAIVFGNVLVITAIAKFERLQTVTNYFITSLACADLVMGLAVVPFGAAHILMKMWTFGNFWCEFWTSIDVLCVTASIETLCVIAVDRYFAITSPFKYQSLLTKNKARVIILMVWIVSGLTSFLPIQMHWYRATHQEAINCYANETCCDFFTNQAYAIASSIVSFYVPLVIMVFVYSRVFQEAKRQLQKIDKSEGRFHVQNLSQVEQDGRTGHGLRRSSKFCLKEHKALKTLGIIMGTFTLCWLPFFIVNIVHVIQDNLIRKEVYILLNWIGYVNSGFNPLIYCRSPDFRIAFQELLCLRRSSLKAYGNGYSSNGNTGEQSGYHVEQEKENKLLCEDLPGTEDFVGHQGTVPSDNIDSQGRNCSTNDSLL
rRNA inh HTS: inhibits bacterial ribosomal RNA function over humanized ribosomes; E. coli WT GFP vs humanized-ribosome RFP mutants, fluorescence, 24 h; hits give low values; DMSO median 0, no signal -100; GFP signal change (wild-type ribosome), % (no concentration beside the values); hit rate 1.6% among 350,000; AID 720706;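 active = significant combined selectivity score with lowered wild-type GFP, culture density cut under 30%, mutant RFP and density less affected; inactive = any of these conditions unmet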; also: one replicate is shown; some compounds called inactive have numbers as strong as hits
rRNA inh HTS OD600: second read-out of rRNA inh HTS, no call of its own (marks repeat the call); OD600 change, %; measured here: OD600 growth;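 optical density of the mix in the first replicate; 0 = DMSO median and -100 = no signal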
rRNA inh HTS RFP: recorded beside rRNA inh HTS, whose call it bears; RFP signal change, %; measured here: RFP humanized mutant strains;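 first replicate; 0 = DMSO median and -100 = no signal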
* marks the source's active call; other numbers are inactive results; / = no result given. The list is partial (hit frequency here may not be typical).

1: CCOc1ccc(C=C2C(=O)NC(=S)NC2=O)cc1OCC
2: O=C(NCCCN1CC1)Nc1cccc2ccccc12
3: c1cc2c(cc1[C@H]1OCC3C1CO[C@@H]3c1ccc3c(c1)OCO3)OCO2 (stereo partly specified)
4: c1ccc(CCc2ccc3n2Cc2cnnn2-c2ccccc2-3)cc1
5: N#CC1c2ccccc2-n2nncc2CN1Cc1cc(Cl)cc(Cl)c1 (stereo unspecified)
6: S=P(N1CCCCCC1)(N1CC1)N1CC1
7: CC1CN1P(=O)(Oc1ccccc1)N1CC1C (stereo unspecified)
8: O=C1NC(=S)NC(=O)C1c1ccccc1

assay / compound,1,2,3,4,5,6,7,8
rRNA inh HTS OD600,11.8,0.9,-4.1,-10.8,-80.7,-4.1,4.6,18.2
LANA-H2A inh,/,/,/,/,/,/,/,/
Beta2AR agonist,2.3,2.7,0.4,-2.1,94.1*,0.8,-1.5,-2.8
rRNA inh HTS RFP,-2.1,3.6,-6.8,28.5,-20.8,-0.3,1.3,1.3
rRNA inh HTS,13.9,4.8,2.5,-15.1,-52.2,1.8,14.0,7.7

9: O=C1NC(=S)NC(=O)C1Cc1ccccc1
10: CN1C(=O)CCC2(C)C1=CCC1C2CCC2(C)C1CCC2(C)O (stereo unspecified)
11: CN1CCCC1c1ccc(=O)[nH]c1 (stereo unspecified)
12: O=C(O)C1(Br)CC12c1ccccc1-c1ccccc12 (stereo unspecified)
13: CC1CC(C)(O)CC(C(O)CC2CC(=O)NC(=O)C2)C1=O (stereo unspecified)
14: CSc1nc(C)c(Br)c(N2CC2)n1
15: CN1C2CCC1C(C(=O)O)C(O)C2 (stereo unspecified)
16: C(=NC1CCCCC1)c1c[nH]c2ccccc12

assay / compound,9,10,11,12,13,14,15,16
rRNA inh HTS OD600,5.1,-8.3,10.3,-12.0,14.8,9.6,16.5,13.2
LANA-H2A inh,/,/,/,/,/,/,/,/
Beta2AR agonist,2.9,-2.0,2.4,0.9,4.3,-9.0,1.7,7.3
rRNA inh HTS RFP,-1.9,1.5,-1.0,3.5,8.4,1.7,0.2,-10.6
rRNA inh HTS,1.6,-1.0,6.1,4.8,18.6,12.5,6.5,5.0

17: COc1ccc2c3c1OC1C(O)C=CC4[C@@H](C2)N(C)CC[C@]314 (stereo partly specified)
18: C[N+](C)(C)CC1CCCc2ccccc2C1=O (stereo unspecified)
19: CNC1(c2ccc(F)cc2)CCCCC1
20: COc1ccc2c(c1)C(NC(C)=O)CCc1cc(OC)c(OC)c(OC)c1-2 (stereo unspecified)
21: C[N+](C)(C)CC1CCCC1=O (stereo unspecified)
22: O=c1[nH]cnc2nc(-c3ccc(N(CCCl)CCCl)cc3)[nH]c12
23: COc1ccc(CN2Cc3cnnn3-c3ccccc3C2c2ccccc2)cc1 (stereo unspecified)
24: C[C@]12CCC(=O)C[C@H]1CC[C@@H]1[C@@H]2CC[C@]2(C)C(=O)CC[C@@H]12

assay / compound,17,18,19,20,21,22,23,24
rRNA inh HTS OD600,-0.1,19.6,5.0,11.0,3.2,4.5,-26.4,-10.8*
LANA-H2A inh,/,/,/,/,/,/,/,/
Beta2AR agonist,-3.6,8.2,-11.6,10.3,-8.6,3.3,19.5,-2.2
rRNA inh HTS RFP,2.1,3.9,-4.5,0.9,0.7,-0.3,-1.3,-1.2*
rRNA inh HTS,-2.9,19.6,2.9,1.4,7.9,2.3,-19.1,-27.0*

25: CN1Cc2ccccc2-n2nncc2C1
26: CC12Cc3cn[nH]c3C=C1CCC1C2CCC2(C)C1CCC2(C)O (stereo unspecified)
27: COc1cccc(NP2(=O)OCC(C)([N+](=O)[O-])CO2)c1 (stereo unspecified)
28: CC12CCC3C(CCC4CC(=O)OCC43C)C1CCC2O (stereo unspecified)
29: S=P(NCCNP(=S)(N1CC1)N1CC1)(N1CC1)N1CC1
30: CC(=O)C1(O)CCC2C3CCC4=C(Cl)C(=O)CCC4(C)C3CCC21C (stereo unspecified)
31: O=P(O)(O)CN1CCNCCN(CP(=O)(O)O)CCNCC1
32: CSc1nc(NC(C)C)nc(NC(C)C)n1

assay / compound,25,26,27,28,29,30,31,32
rRNA inh HTS OD600,11.0,-12.2,2.7,-20.7,20.1,-2.6,4.2,-7.8
LANA-H2A inh,/,/,/,/,/,/,/,/
Beta2AR agonist,0.7,-3.0,-4.8,-4.3,-2.4,7.4,-3.0,-1.1
rRNA inh HTS RFP,1.0,1.1,1.8,-4.3,2.1,4.0,-2.6,-17.2
rRNA inh HTS,20.4,-16.9,14.4,-11.6,12.6,-9.0,-0.7,8.9

33: c1ccc(CCN2CCCCC2)nc1
34: CC1=C(C)CC2(C(=O)NC(=O)NC2=O)C(C)C1 (stereo unspecified)
35: CN(C)CC(C(=O)Cc1ccccc1)c1ccccc1 (stereo unspecified)
36: CCN1CCOC(c2ccccc2)C1 (stereo unspecified)
37: CC12CCC(O)CC1CCC1C2CCC2(C)C(C3=CC(=O)OC3)CCC12O (stereo unspecified)
38: COc1ccc(C=C2C(=O)NC(=S)NC2=O)cc1
39: O=C1NC(=O)C2(CCCC2)C(=O)N1
40: COc1ccc(OC)c(C(O)C(C)N)c1 (stereo unspecified)

assay / compound,33,34,35,36,37,38,39,40
rRNA inh HTS OD600,24.9,14.1,9.8,10.4,13.1,25.6,12.3,10.9
LANA-H2A inh,/,/,/,/,/,/,/,-0.4
Beta2AR agonist,6.9,0.9,15.9,5.9,10.0,-7.8,-0.8,-16.8
rRNA inh HTS RFP,-0.9,-1.9,-0.7,2.2,8.7,1.0,-2.5,-3.0
rRNA inh HTS,12.5,5.1,8.7,18.4,9.3,34.8,9.7,8.9

Compounds shown so far with sulfur (eight):
1: CCOc1ccc(C=C2C(=O)NC(=S)NC2=O)cc1OCC
6: S=P(N1CCCCCC1)(N1CC1)N1CC1
8: O=C1NC(=S)NC(=O)C1c1ccccc1
9: O=C1NC(=S)NC(=O)C1Cc1ccccc1
14: CSc1nc(C)c(Br)c(N2CC2)n1
29: S=P(NCCNP(=S)(N1CC1)N1CC1)(N1CC1)N1CC1
32: CSc1nc(NC(C)C)nc(NC(C)C)n1
38: COc1ccc(C=C2C(=O)NC(=S)NC2=O)cc1

assay / compound,1,6,8,9,14,29,32,38
rRNA inh HTS OD600,11.8,-4.1,18.2,5.1,9.6,20.1,-7.8,25.6
LANA-H2A inh,/,/,/,/,/,/,/,/
Beta2AR agonist,2.3,0.8,-2.8,2.9,-9.0,-2.4,-1.1,-7.8
rRNA inh HTS RFP,-2.1,-0.3,1.3,-1.9,1.7,2.1,-17.2,1.0
rRNA inh HTS,13.9,1.8,7.7,1.6,12.5,12.6,8.9,34.8

Bioassay records deposited in PubChem BioAssay by several laboratories.
